Screening data: PubChem, National Center for Advancing Translational Sciences (NCATS)
Vaccinia Venus: inhibitors of vaccinia virus (Venus reporter); Vaccinia virus Venus reporter expression, fluorescence; hit rate 0.46% among 330,000; AID 720580; Potency, µM (top dose mostly 36.5 µM), for the others: at the highest dose activity change, negative = inhibition, hits mostly inhibitors; active means well fitted inhibition curve with a large enough effect; inconclusive means small, poorly fitted or top-dose-only effect; inactive means no such curve, though single readings can be large or run the other way; tested in A549 cells; also: nearly all actives have a fitted effect of over 30% in size; inactives centre near -10
VACV mCherry inh: inhibitors of vaccinia virus infection (mCherry reporter signal); Vaccinia virus mCherry reporter infection, fluorescence; about a quarter of the inactives have no number; Potency, µM (series often up to 36.5 µM), inactives show at the highest dose activity change, negative = inhibition, hits mostly inhibitors; hit rate 0.63% among 310,000; AID 720579; active = well fitted inhibition curve with a large enough effect; inconclusive = small, poorly fitted or top-dose-only effect; inactive = no such curve, though single readings can be large or run the other way; tested in A549 cells; also: nearly all actives have a fitted effect of over 35% in size; inactives centre near -10
Starred values were filed as active, the others as inactive; i = inactive; u = inconclusive; x = not tested or not shown; & = joins results of further samples; [ ] = another dose, or the depositor's remark. % is scaled to controls: 0 for no effect and ±100 for the full control effect; potency is read from the fitted curve at half-maximal effect.

structure,Vaccinia Venus,VACV mCherry inh
Cc1ccc(C(=O)N2CCOCC2)cc1Cl,-12%,-15%
CCCCn1c(N)c(C(=S)NC(=O)CC(C)C)c(=O)n(C)c1=O,-14%,-23%
COc1cccc(C2C(C(=O)Nc3ccccc3OC)=C(C)Nc3nc4ccccc4n32)c1 (configuration not stated),-8%,-27%
COCCCn1c(C(=O)NCCN2CCOCC2)cc2c(=O)n3ccccc3nc21,-22%,-4%
O=[N+]([O-])c1cnc(Nc2ccc(Cl)cn2)c([N+](=O)[O-])c1,2%,u
O=C(COc1ccccc1)Nc1ccccc1F,-9%,-20%
O=C1NCCN1c1ccccc1,-1%,-14%
CSc1ccc(OC2CCCCC2NS(=O)(=O)c2ccc(Cl)cc2)cc1 (configuration not stated),1%,i
O=C(C1CCN(c2nc3ccccc3[nH]2)CC1)N1CCN(c2ccccc2)CC1,-4%,-18%
COc1ccc(-c2nnc(SCC(=O)NC(=O)NCc3ccccc3)o2)cc1,-7%,i
CC1CCN(S(=O)(=O)N2CCC(C(=O)NCc3ccccc3Cl)CC2)CC1,-20%,0%
CCOC(=O)N1CCN(C(=O)CSCC(=O)N=c2sc3cc(OC)ccc3n2C)CC1,-6%,-12%
Cc1c(/C=N/O)c2ccccn2c1C=O,-19%,-2%
COC(=O)c1[nH]c2ccc(C)cc2c1NC(=O)Oc1ccccc1,7%,2%
C=CCC(CC=C)(C(N)=O)c1ccccc1,-19%,i
Cc1ccc(NC(=O)c2cc(-c3cccs3)on2)cc1C,-11%,-26%
CN(CC(=O)Nc1cccc(F)c1)C(=O)c1cccnc1Sc1ccccc1,-14%,-26%
CN(C(=O)c1ccc(NC(=O)Cc2cccc(NC(=O)C3CCCN(C(=O)C4CCCC4)C3)c2)cc1)C1CCCC1 (configuration not stated),-28%,-16%
COc1cc(C)nc(Nc2nc(C)c(C(C)=O)s2)n1,3%,-7%
Fc1ccc(COc2ccc(-c3nnco3)cc2)c(Cl)c1,-12%,-7%
CON(C)C(=O)CCC1CCCN1C(=O)OC(C)(C)C (configuration not stated),-8%,-12%
COc1cc(NC(=O)c2cccc([N+](=O)[O-])c2)ccc1NC(=O)c1cc2ccccc2o1,-10%,-17%
COc1ccc2c(c1)nc(NCCCO)n2Cc1ccccc1,1%,-6%
CCOc1ccccc1N(CC(=O)Nc1cccc(OC)c1)S(=O)(=O)c1ccccc1,-6%,0%
COc1ccccc1C1CN(Cc2cccn2-c2ncccn2)Cc2ccccc2O1 (configuration not stated),9%,0%
C=CCN1CCC2(C)c3cc(O)ccc3CC1C2C (configuration not stated),-14%&-3%,-3%&-10%
CCN1CCN(c2ncnc3c2cnn3-c2ccc(C)cc2C)CC1,-13%,i
Cc1ccc(-n2c(-c3cnccn3)n[nH]c2=S)c(Br)c1,-5%,-12%
CC(NC(=O)C(=O)N1CCCCC1)C(c1cccs1)N1CCN(C)CC1 (configuration not stated),-14%,-22%
COc1ccc(-c2csc3ncnc(N4CCN(c5ccccc5[N+](=O)[O-])CC4)c23)cc1,-18%,-4%
O=C(CSc1nnc(CNC(=O)c2ccccc2F)o1)c1ccc(Cl)cc1,-13%,u
Cc1ccc(C(C)C)c(OCC(=O)NNC(=O)Nc2ccccc2)c1,-8%,-15%
CC(C)(C)NC(=O)NC(=O)CSc1nnc(COc2ccccc2Cl)o1,1%,x
Cc1cccc(NC(=O)CNC(=O)CSc2nc(N)cc(N)n2)c1C,-3%,-20%
N#C/C(=C/Nc1ccccc1)c1ccsc1,-17%,x
CS(=O)(=O)c1nncn1-c1ccccc1,-8%,-5%
Cn1c(NC(=O)C2CCCO2)cc(=O)n(C)c1=O (configuration not stated),1%,-9%
O=C(OCC(=O)c1c[nH]c2ccccc12)c1ccc([N+](=O)[O-])s1,-18%,u
O=S(=O)(Nc1cccc2c1CCCC2)c1ccc(Cl)cc1,-26%,-5%
Nc1ncc(S(=O)(=O)Nc2ccc(F)cc2F)cn1,-7%,-8%
CCOc1ccc(N=C2NN=C(c3cc(C)n(CC4CCCO4)c3C)CS2)cc1 (configuration not stated),-9%,-14%
O=C(Nc1nnc(S(=O)(=O)N2CCOCC2)s1)c1ccccc1F,1%,-10%
Cc1cccc(C)c1Nc1c(-c2ccccc2F)nc2cccc(C)n12,-20%,-15%
CC1CCCCC1NC(=O)COC(=O)/C=C/c1ccc2c(c1)OCO2 (configuration not stated),0%,-22%
O=C(CSc1nnc(-c2ccncc2)o1)NC1C2CC3CC(C2)CC1C3 (configuration not stated),-28%,-9%
CCCN1CCN(CCCNC(=O)c2ccc3c(c2)sc2nc(-c4ccc(OCC)cc4)cn23)CC1,u,u
CCOCCn1c(CN2CCCCC2C)nc2c1c(=O)n(C)c(=O)n2C (configuration not stated),0%,-8%
Cn1cc(C(CO)Cc2ccccc2)c2ccccc21 (configuration not stated),-14%,-15%
Cc1cc(F)ccc1S(=O)(=O)Nc1ccccc1C(=O)Nc1ncn[nH]1,-23%,x
Cc1ccccc1CN1C2=NCCN2c2ccccc21,-20%,u
CC(C)C[C@H](NC(=O)[C@H]1N2C(=O)c3ccccc3C2SC1(C)C)C(=O)N[C@@H](Cc1ccccc1)C(=O)O (some centres not stated),2%,-9%
OCCNc1nc(-c2cccnc2)nc2ccccc12,-5%,-6%
COC(=O)c1ccc(NC(=O)COC(=O)c2nc3nccc(C)n3n2)cc1,4%,4%
Cn1ccc2c(OCC(=O)Nc3ccc(OC(F)(F)F)cc3)cccc2c1=O,-6%[7.34 µM],-4%[7.34 µM]
COc1ccc(-c2noc(-c3ccc(NCc4ccc(C)cc4)c([N+](=O)[O-])c3)n2)cc1OC,-3%,-4%
CC1Cc2ccccc2N1S(=O)(=O)c1cccc(C(=O)OCC(=O)NCc2ccco2)c1 (configuration not stated),-8%,-24%
COc1ccc(C/C(N)=N/O)cc1,-13%,-3%
COc1ccc(N(CC(=O)NCc2ccc3c(c2)OCO3)C(=O)CCC(=O)Nc2ccccn2)cc1,1%,i
COC(=O)c1sc(NC(=O)COc2cccc3ccccc23)nc1C,-15%,i
Cc1c(O)nc(SCC(=O)Nc2cccc(C(F)(F)F)c2)n(-c2ccccc2)c1=O,-11%,i

Of the compounds above, these contain a nitro group on carbon.
structure,Vaccinia Venus,VACV mCherry inh
O=[N+]([O-])c1cnc(Nc2ccc(Cl)cn2)c([N+](=O)[O-])c1,2%,u
COc1cc(NC(=O)c2cccc([N+](=O)[O-])c2)ccc1NC(=O)c1cc2ccccc2o1,-10%,-17%
COc1ccc(-c2csc3ncnc(N4CCN(c5ccccc5[N+](=O)[O-])CC4)c23)cc1,-18%,-4%
O=C(OCC(=O)c1c[nH]c2ccccc12)c1ccc([N+](=O)[O-])s1,-18%,u
COc1ccc(-c2noc(-c3ccc(NCc4ccc(C)cc4)c([N+](=O)[O-])c3)n2)cc1OC,-3%,-4%

(next part)
structure,Vaccinia Venus,VACV mCherry inh
COc1ccc(C(=O)/C=C/c2ccc(C)cc2)c(OC(=O)c2ccc([N+](=O)[O-])cc2)c1,-8%,-11%
CCc1ccc(NS(=O)(=O)c2ccc3[nH]cc(C(=O)N4CCCCC4)c(=O)c3c2)cc1,-8%,-8%
O=c1cc(-c2ccccc2)cc(-c2ccccc2)n1CCCO,-28%,-14%
CC(Cc1ccccn1)NC(=O)CCc1nnc(C2CCCCC2)o1 (configuration not stated),0%,-27%
CCCSc1ncc(Cl)c(C(=O)N2CCN(c3cccc(Cl)c3)CC2)n1,-16%,-14%
CCS(=O)(=O)c1ncc(Cl)c(C(=O)N(Cc2ccccc2)Cc2ccco2)n1,-10%[7.34 µM],-14%[7.34 µM]
CCOc1ccc(-n2c(SCC(N)=O)nc3c(oc4ccccc43)c2=O)cc1,0%,1%
CC(C)Cn1c(SCC(=O)NC2CCCc3ccccc32)nc(O)cc1=O (configuration not stated),-6%,-5%
CCOC(=O)c1cnc2c(C(F)(F)F)cccc2c1N1CCN(C)CC1,-24%,-24%
Cc1ccccc1NC(=O)CC1SC(=Nc2ccc(O)cc2)NC1=O (configuration not stated),0%,-18%
COc1ccccc1N(CC(=O)Nc1cc(C)on1)S(=O)(=O)c1ccc(Cl)cc1,-21%,x
O=C(NNC(=O)c1ccccc1[N+](=O)[O-])Nc1ccc(Cl)cc1,-4%,-17%
COc1ccc(NC(=O)N2CCCC(C(=O)NC(C)C)C2)cc1 (configuration not stated),-2%,-4%
COCCN(C(=O)COC(=O)COc1ccc2c(c1)CCC2)c1c(N)n(Cc2ccccc2)c(=O)[nH]c1=O,-12%,-22%
CCc1ccc(/C=C2\SC(=S)N(CCCC(=O)NC3=NCCS3)C2=O)cc1,-16%,-6%
CN1CC[C@]2(CCN3CCc4c(oc5ccccc45)[C@@H]3C2)N(C)C1=O,-19%,i
N#C/C(=C/C1=C(N2CCOCC2)C(=C/c2cccc([N+](=O)[O-])c2)/CC1)C(=O)Nc1ccccc1F,33%[activator],-9%
Cc1c(C(=O)NCc2ccccc2)sc(=O)n1Cc1ccccc1F,2%,13%
Cc1cc(C)c(NC(=O)C(=O)NCC(c2cccnc2)N2CCN(Cc3ccccc3)CC2)c(C)c1 (configuration not stated),-23%,-4%
O=C(NCC(c1cccnc1)N1CCN(c2ccccc2F)CC1)c1ccccc1 (configuration not stated),-13%,i

(continued)
Structure	Vaccinia Venus	VACV mCherry inh
COc1cccc(CNC(=O)COc2cc3c(c4oc(=O)cc(C)c24)CCC(C)(C)O3)c1	-2%	-6%
O=C1CN(c2ccccc2)C(=S)N1C(=O)c1ccccc1	0%	-10%
CCCCc1nc2ccccc2c(=O)n1NC(=O)c1c(O)c2ccccc2n(C)c1=O	-12%	i
COC(=O)c1ccc2c(c1)NC(=O)CS2	-10%	i
C[C@H](O)CNC(=O)c1[nH]cnc1C(=O)N[C@@H](C)c1ccccc1	-5%	i
CN1CCC2(CC1)N=C(c1ccc(F)cc1)C(=S)N2C(=O)c1ccc(C(C)(C)C)cc1	-23%	i
COc1cccc(C(=O)Nc2nnc(S(=O)(=O)N3CCCC3)s2)c1	-8%	-8%
CC1CCCN(C(=O)c2cc3ccc4cccnc4c3[nH]2)C1 (configuration not stated)	-15%	0%
Cc1csc(NC(=O)C2CCCC2)n1	-14%	x
CC12CCC(=O)C=C1C(O)CC1C2CCC2(C)C1CCC2(O)C(=O)CO (configuration not stated)	-23%	-15%
CC(Oc1ccccc1)C(=O)OCC(=O)Nc1sccc1C(N)=O (configuration not stated)	-13%	-13%
Nc1nc2c(Br)ccc(Br)c2cc1C(=O)NCCc1ccccc1	-9%	12%
O=C(Cc1coc2ccc3ccccc3c12)NCc1cccs1	-16%	i
O=C(O)/C=C/c1ccccc1Oc1ccc(Cl)cc1Cl	-4%	-9%
Brc1ccc2c(c1)-c1ccccc1C1=NCCN12	u	u
CC1CCCCN1C(=O)c1ccc(CS(=O)(=O)Cc2ccccc2)cc1 (configuration not stated)	-8%	i
CC(=O)c1ccc(NC(=O)C(C)OC(=O)c2ccc(NS(=O)(=O)c3ccc(F)c(F)c3)cc2)cc1 (configuration not stated)	-6%	-17%
N=c1n(CCO)c2ccccc2n1Cc1ccc(Cl)cc1	-16%	x
CC(OC(=O)CN1C(=O)c2ccccc2C1=O)C(=O)NC1CCCCC1C (configuration not stated)	-18%	-20%
Nc1ccccc1Nc1cc(-c2ccccc2)[nH]n1	-14%	-15%
C=CCN(c1ccc(C(=O)Nc2cccc(C)c2)cc1)S(C)(=O)=O	-3%	-10%
COc1ccc(NC(C)=O)cc1NC(=O)c1cccn(Cc2ccccc2)c1=O	-8%	-14%
Cc1ccc2nc(Nc3nc(CSc4nc5ccccc5s4)cc(=O)[nH]3)nc(C)c2c1	-8%	-26%
Cc1cc(Oc2nc3c(C)cccn3c(=O)c2/C=C(\C#N)S(=O)(=O)c2ccccc2)ccc1Cl	-16%	-1%
Cc1c(-n2c(SCC(=O)N(C)C3CCS(=O)(=O)C3)nc3ccccc3c2=O)c(=O)n(-c2ccccc2)n1C (configuration not stated)	-5%	2%

In the list so far, these contain bromine:
Structure	Vaccinia Venus	VACV mCherry inh
Cc1ccc(-n2c(-c3cnccn3)n[nH]c2=S)c(Br)c1	-5%	-12%
Nc1nc2c(Br)ccc(Br)c2cc1C(=O)NCCc1ccccc1	-9%	12%
Brc1ccc2c(c1)-c1ccccc1C1=NCCN12	u	u

Continuation.
Structure	Vaccinia Venus	VACV mCherry inh
CC1CCCN(S(=O)(=O)c2cc3c4c(c2)CCN4C(=O)CC3)C1 (configuration not stated)	-3%	-6%
CCc1ccc(S(=O)(=O)NC2CC(C)(C)NC(C)(C)C2)cc1	-15%	i
CCOC(=O)c1cc(OC(=O)c2ccccc2C)n(-c2ccccc2)n1	-2%	1%
C[C@@H](NC(=O)c1ncn(C)c1C(=O)N[C@H](C)c1ccccc1)c1ccccc1	-19%	u
COC(=O)c1ccc(NC(=S)NCCCn2ccnc2)cc1	-1%	0%
O=c1n(Cc2cccc(C(F)(F)F)c2)c2ccccc2c2nc(-c3ccccc3)nn12	-28%	u
CC(=O)NCCC(=O)Nc1nc(C)c(Cc2ccc3c(c2)OCO3)s1	-4%	i
